HPGD block: HPGD (human) dehydrogenase inhibition. P15428. purified HPGD, NADH fluorescence kinetic, PGE2 substrate. Potency, µM, for inactives: at the top dose activity change, negative = inhibition, most hits filed as inhibitors. 150,000 compounds, 4.3% hits. AID 894; active = well fitted inhibition curve with a large enough effect (not every such curve was filed as active); inconclusive = small, poorly fitted or top-dose-only effect, or another doubt; inactive = no such curve, though single readings can be large or run the other way;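 further: top concentration of the series not given in the record; plate controls included wells without enzyme; inactives centre near -10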
Target sequence (P15428 whole entry, looked up): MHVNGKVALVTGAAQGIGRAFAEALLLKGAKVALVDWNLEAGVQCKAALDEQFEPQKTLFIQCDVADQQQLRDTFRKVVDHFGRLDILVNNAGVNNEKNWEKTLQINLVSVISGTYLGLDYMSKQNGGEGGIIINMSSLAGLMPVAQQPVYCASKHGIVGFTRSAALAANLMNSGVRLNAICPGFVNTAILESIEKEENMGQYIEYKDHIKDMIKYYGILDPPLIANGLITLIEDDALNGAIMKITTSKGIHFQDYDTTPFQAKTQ
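NADH formation kinetics: reaction with 30 uM PGE2 and 1 mM NAD+ (final), 20 nM enzyme, Tris-HCl pH 8 with Tween 20, after 15 min compound preincubation at room temperature. Fluorescence change, last versus first of five reads.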
Starred values were filed as active, the others as inactive; u = inconclusive; & = joins results of further samples. On the % scale 0 is the no-effect control and ±100 the full control effect; potency means the concentration at half of the fitted maximal effect.

HPGD block,smiles
-10%,CCOC(=O)C(=O)C1(C(=O)OCC)Oc2cc(OC)cc(OC)c2C(=O)C1c1ccccc1 (stereo unspecified)
-3%,Cc1nc2c(-c3ccc(F)cc3)c(C)nn2c(C)c1CCC(=O)N1CCN(c2ccccc2)CC1
-20%,O=C(NCc1cccnc1)/C(=C/c1ccc(-c2cccc(Cl)c2)o1)S(=O)(=O)c1ccccc1
-9%,O=C(NCCc1ccc(Cl)cc1)C1CCN(c2cnccn2)CC1
-15%,O=C(c1ccncc1)N1CCN(C(=O)c2ccco2)CC1
-12%,CN1CCN(CC(=O)Nc2cccc3ccccc23)CC1
2%,COC(=O)C1C/C(=N\NS(=O)(=O)c2ccc(C)cc2)c2ccsc2C1 (stereo unspecified)
-9%,O=C(COc1ccccc1)Nc1ccc(Cl)c(-c2nc3ncccc3o2)c1
16µM*,CCOC(=O)c1ccc(NC(=O)CC2Sc3ncnn3C2=O)cc1 (stereo unspecified)
-19%,Cc1ccc(S(=O)(=O)N2CCC(=O)N(C(COCc3cccc(C)c3)Cc3ccccc3)CC2)cc1 (stereo unspecified)
-15%,O=C(CCCn1ncn2c(cc3occc32)c1=O)N1CCc2ccccc2C1
-4%,O=C(NCN1CCN(CCO)CC1)c1cnccn1
-2%,COC(=O)C1CCN(C(=O)COc2cc3sc(C)nc3c3sccc23)CC1
-8%,COc1ccc(Cl)cc1N1C(=O)CC(N2CCc3ccccc32)C1=O (stereo unspecified)
-6%,CN(C)C(=O)N1CCN(C(=O)N2CCOCC2)CC1
-5%,O=C(Cc1nc2ccccc2[nH]1)NCc1ccco1
-7%,O=C(CCCN1C(=O)/C(=C/c2ccccc2Cl)SC1=S)NNC(=O)c1ccccc1
-6%,CCC[N+](CC#Cc1ccccc1)(CCC)CC(=O)c1ccc(Cl)cc1
-13%,CCNC(=S)N(CCc1c(C)[nH]c2ccc(C)cc12)Cc1ccco1
-28%,COc1ccc(C=O)cc1COc1ccccc1F
-8%,COC1CCCCC1NS(=O)(=O)c1ccc(Cl)cc1 (stereo unspecified)
-12%,CCOc1ccccc1NC(=O)c1ccc(S(=O)(=O)N2CCOCC2)cc1
-11%,O=Cc1c[nH]c2ccc(S(=O)(=O)N3CCOCC3)cc12
-6%,O=C(O)COc1ccc(/C=N/NC(=O)C2CCCN2S(=O)(=O)c2ccc(Cl)cc2)cc1 (stereo unspecified)
-15%,O=S(=O)(c1ccc(Cl)s1)N1CCN(C/C=C/c2ccccc2)CC1
-6%,O=S(=O)(c1cccc(-c2nnc(-c3cccnc3)o2)c1)N1CCCCC1
-3%,CCOC(=O)C1CCN(c2ncnc3c2cnn3-c2ccccc2)CC1
1%,CCCC(c1nnnn1C1CCCC1)N1CCN(C(=O)c2ccco2)CC1 (stereo unspecified)
-2%,Cc1ccc(S(=O)(=O)NC(=O)NCc2ccc(Cl)cc2)cc1
-6%,CCc1nnc(NC(=O)CSc2nnc(-c3ccoc3C)n2-c2cccc(C)c2)s1
-16%,COC(=O)c1cc2c(cc1NC(=O)CSCCc1ccccn1)OCO2
-4%,CC(=O)N1CCN(CC(=O)Nc2ccc(SC(F)F)cc2)CC1

Laid out differently: entries from further up
smiles | HPGD block
CCOC(=O)C1CCN(c2ncnc3c2cnn3-c2ccccc2)CC1 | -3%
CCCC(c1nnnn1C1CCCC1)N1CCN(C(=O)c2ccco2)CC1 (stereo unspecified) | 1%
Cc1ccc(S(=O)(=O)NC(=O)NCc2ccc(Cl)cc2)cc1 | -2%
CCc1nnc(NC(=O)CSc2nnc(-c3ccoc3C)n2-c2cccc(C)c2)s1 | -6%
COC(=O)c1cc2c(cc1NC(=O)CSCCc1ccccn1)OCO2 | -16%

Next records
HPGD block,smiles
-12%,COC(=O)C1=C2SC(C)C(=O)N2C(N)=C(C#N)C1c1cc(OC)c(OC)c(OC)c1 (stereo unspecified)
-12%,Nc1nc(SCC(=O)Nc2ccccc2Sc2ccc(Cl)cc2)n[nH]1
-10%,COC(=O)COc1ccccc1/C=C1/NC(=O)NC1=O
-18%,COc1cc(CNc2ccc(CNc3ncn[nH]3)cc2)ccc1OCc1ccccc1
-8%,COc1ccc(S(=O)(=O)n2ccc(C)n2)cc1C
2%,CCCCN(C(=O)CSc1nnc(-c2ccc(OC)cc2)n1C(C)C)c1c(N)n(Cc2ccccc2)c(=O)[nH]c1=O
-5%,COc1ccc(OC)c(C(c2nnnn2CC2CCCO2)N2CCN(C3CCCC3)CC2)c1 (stereo unspecified)
-23%,COc1ccc(-c2nnc(NC(=O)CSc3ccc(Cl)cc3)s2)cc1OC
-11%,CCOC(=O)C(NCc1ccccc1)(NC(=O)c1ccccc1)C(F)(F)F (stereo unspecified)
-29%,O=C(Nc1ccc2oc(=O)c(C(=O)O)cc2c1)Oc1ccccc1
-13%,CC1=C(/C=C/C(C)=C/C=C/C(C)=C/C=O)C(C)(C)CCC1
0%,CCCCC1C2=C(CCCC2=O)OC2=C1C(=O)CCC2
6%,COC(=O)CCC(=O)NNC(=O)c1ccc(Cl)cc1Cl
-7%,COc1ccc(-n2nc3c(c2NC(=O)c2c(F)cccc2Cl)CS(=O)C3)cc1 (stereo unspecified)
-15%,Cc1cccc(OCCNc2nc3c(c(=O)n(C)c(=O)n3C)n2C)c1
-11%,Cc1ccc(Cl)c(OCC(O)CN(CCO)CCO)c1 (stereo unspecified)
-7%,O=C(COC(=O)c1c2c(nc3ccccc13)/C(=C/c1cccc([N+](=O)[O-])c1)CCC2)NC1CCS(=O)(=O)C1 (stereo unspecified)
-14%,O=C(c1ccccn1)N(Cc1ccco1)C1(C(=O)NC2CCCC2)CCCCC1
6%,Cc1c(CCOC(=O)CC23CC4CC(CC(C4)C2)C3)sc[n+]1Cc1ccccc1
-7%,Cc1ccc(CSc2nc3c(c(=O)[nH]c(=O)n3C)n2CCC(C)C)cc1
-16%,S=c1[nH]nc(Cc2cccs2)n1-c1ccccc1
-12%,CC(Sc1nc2ccccc2n1C)C(=O)NC(c1ccccc1)c1ccccc1 (stereo unspecified)
-5%,CCc1cc2c(SCC(=O)Nc3ncc(Cl)c(C)c3Cl)ncnc2s1
-3%,CCCn1nnc(NC(=O)COc2cc(C)ccc2C(C)C)n1
-3%,Cc1ccc(-c2ccc(C(=O)O)c(C)n2)cc1
-9%,CCC(=O)N1CCN(c2ccc(Cl)cc2NC(=O)Cc2ccc(Cl)cc2)CC1
-13%,CCOC(=O)Cc1csc(SCC(=O)Nc2cccc(Cl)c2)n1
-5%,Cc1cc(C)cc(N(C(=O)Cc2cccs2)C(C(=O)NC2CCCC2)c2ccc(C)o2)c1 (stereo unspecified)
-1%,CCOc1ccc(CNCc2cccnc2)cc1
-3%,CCc1ccccc1NC(=O)CN(C)C(=O)CN1C(=O)NC2(CCCCCC2)C1=O
-6%,O=C(c1ccc(C23CC4CC(CC(C4)C2)C3)o1)N1CCOCC1
-3%,CS(=O)(=O)N(CC(=O)N1CCN(c2cccc(Cl)c2)CC1)c1ccccc1

A different layout for part of the listing above:
molecule	HPGD block
COc1ccc(C=O)cc1COc1ccccc1F	-28%
COC1CCCCC1NS(=O)(=O)c1ccc(Cl)cc1 (stereo unspecified)	-8%
CCOc1ccccc1NC(=O)c1ccc(S(=O)(=O)N2CCOCC2)cc1	-12%
O=Cc1c[nH]c2ccc(S(=O)(=O)N3CCOCC3)cc12	-11%

Remaining list, next part
HPGD block,smiles
-5%,CCC1(C(=O)c2ccccc2)C(c2cccc([N+](=O)[O-])c2)C1(C(=O)OC)C(=O)OC (stereo unspecified)
0%,O=C(O)c1cc(C2CC2)nn1-c1ccccc1
-8%,CCCC(c1nnnn1CCOC)N(Cc1cc2cc(C)c(C)cc2[nH]c1=O)CC1CCCO1 (stereo unspecified)
-10%,Cc1cc(C)nc(SCC(=O)Nc2ncc3c(n2)CC(C)(C)CC3=O)n1
-1%,Cn1c(=O)oc2cc(S(=O)(=O)NCc3ccncc3)ccc21
-18%,CCOc1ccc(C(=O)NCC2OCCc3ccccc32)cc1 (stereo unspecified)
-16%,COc1cc(C(=O)Nc2ccc([N+](=O)[O-])cn2)cc(OC)c1OC
-8%,O=C(NCCOc1nc(N2CCCCC2)nc(N2CCOCC2)n1)Nc1ccccc1
-9%,O=C(NCC1CCCO1)c1onc(CSc2ccccc2F)c1C(=O)O (stereo unspecified)
u,COc1cc(-c2nn3c(-c4ccccn4)nnc3s2)cc(OC)c1OC
0%,Cc1c(NC(=O)C(C)Sc2ccc3ccccc3n2)c(=O)n(-c2ccccc2)n1C (stereo unspecified)
-12%,Cc1nn(C)c(C)c1CN(C)C(=O)C1c2ccccc2Oc2ccccc21
u,Oc1ccc2oc3c(c2c1/C=N/n1cnnc1)CCCC3
-7%,COc1ccc(C2CC(=O)C(C=NCCO)=C(O)C2)cc1OC (stereo unspecified)
u,c1ccc2c(c1)c1c3n2CCNC3CCC1 (stereo unspecified)
u,C(=N\c1nccs1)/c1cccnc1
u,N#Cc1c(N)nc(SCC(=O)C23CC4CC(CC(C4)C2)C3)c(C#N)c1-c1ccc(Cl)cc1
-29%,CCOC(=O)CNC(=O)c1cn(CC(C)C)c(=O)c2cc(OC)c(OC)cc12
-14%,O=C(c1ccccc1)N1CCSC1=S
-5%,N/C(=N\OC(=O)C1CCCCC1)c1cccnc1
-7%,Cc1cc(/C=N/Nc2ccc([N+](=O)[O-])cn2)c(C)n1-c1ccccc1
-8%,Cc1ccc(OCCNS(=O)(=O)c2ccc(N3CCCC3=O)cc2)cc1C
-19%,O=S(=O)(c1cccc2nonc12)N1CCN(c2cccc(Cl)c2)CC1
-2%,CCOC(=O)C1CCCN(S(=O)(=O)c2cn(C)c(=O)n(C)c2=O)C1 (stereo unspecified)
-3%,Cc1c(=O)n(OCc2ccccc2F)c2ccccc2[n+]1[O-]
1%,O=C(Cc1ccccc1)NN1C(=O)C2C3C=CC(C3)C2C1=O (stereo unspecified)
-3%,Cc1ccc(S(=O)(=O)Cn2nnnc2CN2CCOCC2)cc1
-16%,N#C/C(=C\c1ccc(Sc2ccc(Cl)cc2)o1)c1nc2ccccc2[nH]1
-11%,O=C(O)c1ccc2c(c1)ncn2C1CCCCC1
2%,Cc1ccc2c(c1)C=CC(C#N)N2C(=O)c1ccccc1 (stereo unspecified)
-3%,CN1CCN(S(=O)(=O)c2ccc(NC(=O)C3CCCCC3)cc2)CC1
-5%,C[C@H](NC(=O)c1ccco1)C(=O)Nc1ccc(S(=O)(=O)N2CCCC2)cc1

For reference, 2 of the compounds above.
HPGD block,smiles
-3%,CN1CCN(S(=O)(=O)c2ccc(NC(=O)C3CCCCC3)cc2)CC1
-5%,C[C@H](NC(=O)c1ccco1)C(=O)Nc1ccc(S(=O)(=O)N2CCCC2)cc1

(cont.)
HPGD block,smiles
-11%,O=C(Cc1sc(-c2ccccc2Cl)nc1-c1ccccc1)Nc1ccccc1
-25%,COc1cc(-c2nnc(SCC3(c4ccc(Br)cc4)OCCO3)o2)cc(OC)c1OC
-8%,CCNc1ccc(C(=O)OCC(=O)N(Cc2ccccc2)C(C)(C)C)cc1[N+](=O)[O-]
u,O=C(NCc1cccc(C(F)(F)F)c1)C1CC(c2c(Cl)cccc2Cl)=NO1 (stereo unspecified)
u,O=C(Cn1c(=O)c(=O)n(Cc2ccccc2)c2ccc(Cl)cc21)Nc1cccc(F)c1
-21%,COCCn1c(SCC(=O)c2ccc(F)cc2)nnc1C(C)C
-3%,Cc1csc(NC(=O)c2ccccc2C(=O)O)n1
-6%,O=C(O)[C@H](Cc1ccccc1)N1C(=O)c2ccncc2C1=O
-4%&-4%&-4%&3%,OC(CCN1CCCCC1)(c1ccccc1)c1ccccc1
-8%,CCOc1ccc(NC(=O)N(CCN2CCOCC2)Cc2ccc3c(c2)CCCN3CC)cc1
u,CC(C)C(C)(C#N)NC(=O)CSc1ncnc2sc(-c3ccccc3)cc12 (stereo unspecified)
-14%,Cc1ccc(NC2=NC(c3ccccc3)n3c(nc(C)cc3=O)N2)cc1 (stereo unspecified)
0%,CCOC(=O)c1ccc(S(=O)(=O)N2CCC(C(=O)O)CC2)cc1
-5%,c1ccc(CCNc2ncnc3nc[nH]c23)cc1
-3%,Cc1ccc(N(CC(=O)NCc2ccc3c(c2)OCO3)S(C)(=O)=O)cc1
-10%,Cn1nc(C(=O)N2CCN(S(=O)(=O)/C=C/c3ccccc3)CC2)c2ccccc2c1=O
-17%,Cc1ccc(C(=O)Nc2cccc(C(=O)NCc3ccccc3)c2)cc1
-8%,COCCn1c(SCC(=O)Nc2nc(C)c(Cl)cc2Cl)nc2ccccc21
-16%,CCCSc1nc(NCc2ccco2)c2c3c(sc2n1)COC(C)(C)C3
3%,Cc1cc(C)cc(OCC(=O)NN2Cc3ccccc3C2=N)c1
-8%,CC1CCC(NC(=O)CC2Oc3ccccc3NC2=O)CC1 (stereo unspecified)
8%,N#CCCN(C(=O)Nc1ccccc1)c1ccccc1
-15%,O=C(CCc1ccc(S(=O)(=O)N2CCOCC2)cc1)Nc1nc(COc2ccccc2)cs1
-10%&0%,Cc1c(C)c2c(c(C)c1O)CC[C@@](C)(CCC[C@H](C)CCC[C@H](C)CCCC(C)C)O2
22µM*,COC(=O)n1c(=S)oc2cc(Cl)ccc21
-9%,COC(=O)c1c(C(=O)OC)c(-c2cccc(C)c2)n2c1CS(=O)(=O)C2
-8%,CCOc1ccc(NC(=O)C2CC(C)=C(C)CC2C(=O)O)cc1 (stereo unspecified)
-16%,S=C(Nc1cccc(Cl)c1)NC1CCCCC1
-3%,COc1ccc(CCNC2=NCC(C)S2)cc1 (stereo unspecified)
2%,CCn1c(C)cc(/C=C2\SC(=O)N(CC(=O)Nc3ccc(C)c(C)c3)C2=O)c1C

An excerpt; count on the stated rates, not on these rows.
